Screening results as filed in PubChem.
UUG fidelity: modulators of start codon recognition fidelity in yeast; S. cerevisiae UUG-firefly luciferase reporter, luminescence/redox ratio; 350,000 tested, 0.13% active; activity score, % at 18.7 µM;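 active = replicate mean at a twofold rise or more, about +100% in these data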;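 also: firefly luciferase made from a UUG start codon reports start codon fidelity; reporter light over untreated wells divided by growth signal over untreated wells; some hits fall short of that in this replicate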
An asterisk follows results filed as active. These rows are one share of the data; the hit share may differ from the screen's.

SMILES | UUG fidelity
CCCC(=O)Nc1ccc2c(c1)C(=O)N(C)C[C@@H](OC)[C@H](C)CN(Cc1ccccc1OC)[C@H](C)CO2 | -4
CO[C@@H]1CN(C)C(=O)c2ccc(NS(=O)(=O)c3cccc(F)c3)cc2OC[C@@H](C)N(C(=O)Cc2cccnc2)C[C@H]1C | -7
COc1cccc(-c2ccc3c(c2)[C@@H]2[C@@H](CCN2S(=O)(=O)c2ccccc2F)[C@@H](CO)N3)c1 | -25
C[C@@H]1CN([C@@H](C)CO)C(=O)Cc2cc(N(C)C)ccc2O[C@@H]1CN(C)S(=O)(=O)c1ccc(F)cc1 | -4
C/C=C/c1ccc([C@H]2[C@@H](CNC(=O)CC)N(Cc3ccccn3)[C@H]2CO)cc1 | -21
C[C@@H]1CN([C@@H](C)CO)C(=O)c2cc(NC(=O)Cc3cn(C)c4ccccc34)ccc2O[C@H]1CN(C)Cc1ccc(Cl)c(Cl)c1 | 13
COc1ccc(C#Cc2ccc3c(c2)[C@H]2[C@H](CCN2S(=O)(=O)c2ccccc2F)[C@H](CO)N3C)cc1 | -4
OC[C@@H]1[C@H](c2ccc(C#Cc3ccccc3F)cc2)[C@H]2CN(Cc3cncnc3)CCCCN12 | 69
CO[C@H]1CN(C)C(=O)c2ccc(NC(C)=O)cc2OC[C@@H](C)N(CCC(F)(F)F)C[C@H]1C | -9
O=C(c1cccc(F)c1)N1CCCCN2[C@@H](CO)[C@@H](c3ccc(-c4ccc(F)cc4)cc3)[C@@H]2C1 | -9
CCCN1C[C@H](C)[C@H](OC)CN(C)C(=O)c2cc(NC(=O)NC3CCCCC3)ccc2OC[C@@H]1C | 13
CCC(=O)N1[C@H](CO)[C@H]2c3ccccc3N(C(=O)Nc3ccccc3Cl)C[C@H]21 | -4
C[C@@H]1CN([C@@H](C)CO)C(=O)c2cc(NC(=O)NC3CCCCC3)ccc2O[C@@H]1CN(C)Cc1ccc(Oc2ccccc2)cc1 | 5
O=C(Nc1ccc(F)cc1)N1C[C@H]2[C@@H](c3ccccc31)[C@@H](CO)N2C(=O)c1cccnc1 | -6
CCC(=O)N1C[C@@H](C)[C@@H](OC)CN(C)C(=O)c2cc(NC(=O)C3CCOCC3)ccc2OC[C@@H]1C | -12
COc1ccccc1CN1[C@@H]2CN(C(=O)c3ccncc3)c3ccccc3[C@@H]2[C@@H]1CO | -14
O=C(c1ccncc1)N1C[C@@H]2[C@H](c3ccccc31)[C@H](CO)N2C(=O)Nc1ccccc1Cl | -10
COc1ccc(NC(=O)N(C)C[C@@H]2Oc3ccc(NC(=O)CCN4CCOCC4)cc3CC(=O)N([C@H](C)CO)C[C@@H]2C)cc1 | 9
O=C(Nc1cccc(Cl)c1)N1C[C@H]2[C@@H](c3ccccc31)[C@H](CO)N2C(=O)C1CCCC1 | 20
COc1ccccc1-c1ccc([C@H]2[C@@H](CO)N3CCCCN(S(=O)(=O)c4cn(C)cn4)C[C@H]23)cc1 | 5
COc1ccc(NC(=O)Nc2ccc3c(c2)CC(=O)N([C@@H](C)CO)C[C@@H](C)[C@@H](CN(C)C(=O)Nc2ccccc2)O3)cc1 | -7
CC(C)C#Cc1ccc([C@H]2[C@H](CO)N3CCCCN(C(=O)c4ccc(F)cc4)C[C@@H]23)cc1 | 25
OC[C@@H]1[C@H](c2ccc(Br)cc2)[C@H]2CN(Cc3cncnc3)CCCCN12 | -12
COc1ccc(CN(C)C[C@H]2OCc3cn(nn3)CCCC(=O)N([C@@H](C)CO)C[C@H]2C)cc1 | -8
C[C@@H]1CN([C@@H](C)CO)C(=O)Cc2cc(NC(=O)C3CC3)ccc2O[C@@H]1CN(C)C(=O)Nc1ccccc1 | 19

New compounds follow
SMILES | UUG fidelity
C[C@@H]1CN([C@@H](C)CO)C(=O)c2cc(NC(=O)Nc3ccc(C(F)(F)F)cc3)ccc2O[C@H]1CN(C)Cc1ccc(C(=O)Nc2ccccc2N)cc1 | -2
Cc1noc(C)c1NC(=O)Nc1ccc2c(c1)CC(=O)N([C@@H](C)CO)C[C@H](C)[C@H](CN(C)Cc1ccc(Cl)c(Cl)c1)O2 | 4
C[C@@H]1CN([C@H](C)CO)C(=O)c2cc(NS(=O)(=O)c3ccc(F)cc3)ccc2O[C@H]1CN(C)C | 0
O=C(c1ccccc1)N1C[C@@H]2[C@H](c3ccccc31)[C@H](CO)N2S(=O)(=O)c1ccccc1 | -6
Cc1noc(C)c1NC(=O)N(C)C[C@H]1Oc2c(NC(=O)c3nc4ccccc4s3)cccc2C(=O)N([C@@H](C)CO)C[C@H]1C | -4
C[C@@H]1CN([C@@H](C)CO)C(=O)c2cccc(NC(=O)c3nc4ccccc4s3)c2O[C@@H]1CN(C)Cc1ccncc1 | 7
COc1ccc(NC(=O)N2C[C@@H](O)COC[C@@H]3O[C@@H](CC(=O)N4CCOCC4)CC[C@H]32)cc1 | 2
C[C@@H]1CN([C@@H](C)CO)C(=O)CCCn2nncc2CO[C@@H]1CN(C)C(=O)Nc1ccc(F)cc1 | 5
COc1ccccc1CN1CC[C@@H]2[C@H]1c1cc(C#Cc3ccccc3)ccc1N[C@@H]2CO | 16
CO[C@H]1CN(C)C(=O)c2cc(NC(=O)C3CCC3)ccc2OC[C@@H](C)NC[C@H]1C | -10
C/C=C/c1ccc([C@@H]2[C@H](CO)N3CCCCN(C(=O)Nc4ccccc4F)C[C@@H]23)cc1 | 19
CC=Cc1ccc2n(c1=O)C[C@H]1[C@H](CO)[C@@H](C(=O)N3CCC(Cc4ccccc4)CC3)N(CC)[C@@H]21 (mixture of isomers) | 7
Cc1ccc(-c2ccc([C@@H]3[C@@H](CO)N4CCCCN(S(=O)(=O)c5ccccc5C)C[C@@H]34)cc2)cc1 | 17
CC(=O)NC[C@@H]1[C@H](c2ccc(-c3ccccc3F)cc2)[C@@H](CO)N1C(=O)C1CC1 | -1
CO[C@@H]1CN(C)C(=O)c2ccc(NC(=O)NC3CCCCC3)cc2OC[C@@H](C)N(C(=O)NC2CCCCC2)C[C@H]1C | -1
CCCNC(=O)C[C@H]1CC[C@@H]2[C@H](COC[C@@H](O)CN2Cc2ccc(Cl)c(Cl)c2)O1 | 2
Cc1cccc(S(=O)(=O)N2C[C@H]3[C@@H](c4ccccc42)[C@@H](CO)N3Cc2ccccn2)c1 | 4
C[C@H]1CN([C@@H](C)CO)C(=O)CCCn2nncc2CO[C@@H]1CN(C)S(=O)(=O)c1ccccc1F | -10
CC(=O)N1CCCCN2[C@H](CO)[C@H](c3ccc(-c4ccc(F)cc4)cc3)[C@H]2C1 | -8
CC(C)NC(=O)N(C)C[C@@H]1Oc2ccc(NS(=O)(=O)c3ccc(Cl)cc3)cc2CC(=O)N([C@H](C)CO)C[C@H]1C | -7
COCC(=O)N1C[C@H]2[C@@H](c3ccccc31)[C@H](CO)N2C(=O)c1ccccc1F | 0
COc1ccccc1NC(=O)N1C[C@H]2[C@@H](c3ccccc31)[C@@H](CO)N2C(=O)C1CCCC1 | 4
CCCNC(=O)N1CC[C@H]2[C@@H]1c1cc(C#Cc3ccccc3)ccc1N(C)[C@H]2CO | 0
COc1cccc(C(=O)Nc2ccc3c(c2)OC[C@H](C)N(CC2CC2)C[C@@H](C)[C@@H](OC)CN(C)C3=O)c1 | -5
COc1ccc(S(=O)(=O)N(C)C[C@H]2Oc3ccc(NC(=O)CCC(F)(F)F)cc3CC(=O)N([C@H](C)CO)C[C@H]2C)cc1 | 29

(further entries)
SMILES | UUG fidelity
CS(=O)(=O)Nc1ccc2c(c1)[C@H]1C[C@@H](CC(=O)N3CCCCC3)O[C@@H](CO)[C@H]1O2 | -10
CO[C@@H]1CN(C)C(=O)c2cc(NC(=O)Nc3ccccc3F)ccc2OC[C@H](C)NC[C@H]1C | -1
C[C@@H]1CN([C@H](C)CO)C(=O)Cc2cc(NS(=O)(=O)c3ccc(Cl)cc3)ccc2O[C@H]1CN(C)C(=O)NC1CCCCC1 | -2
CS(=O)(=O)N1[C@@H]2Cn3c(ccc(C4=CCCCC4)c3=O)[C@H]1[C@@H](C(=O)N1CCCCC1)[C@@H]2CO | 14
C[C@@H]1CN([C@@H](C)CO)C(=O)c2cc(NC(=O)CCC(F)(F)F)ccc2O[C@H]1CN(C)C(=O)Nc1ccc(F)cc1 | 12
CO[C@@H]1CN(C)C(=O)c2ccc(NC(=O)C3CC3)cc2OC[C@H](C)N(C(=O)C2CCOCC2)C[C@@H]1C | 19
CO[C@@H]1CN(C)C(=O)c2ccc(NC(=O)C3CC3)cc2OC[C@H](C)N(CC2CCCC2)C[C@@H]1C | -3
C[C@H](NC(=O)C[C@@H]1C[C@@H]2c3cc(NC(=O)CC4CC4)ccc3O[C@@H]2[C@H](CO)O1)c1ccccc1 | -5
Cc1noc(C)c1S(=O)(=O)Nc1ccc2c(c1)C(=O)N([C@H](C)CO)C[C@@H](C)[C@@H](CN(C)C(=O)NC1CCCCC1)O2 | 4
C[C@@H]1CN([C@H](C)CO)C(=O)c2cc(NC(=O)Nc3ccccc3)ccc2O[C@@H]1CN(C)CC1CCCCC1 | 4
C[C@H](CO)N1C[C@H](C)[C@@H](CN(C)C)Oc2ccc(NS(C)(=O)=O)cc2C1=O | 10
CC(=O)N1C[C@H]2[C@@H](c3ccccc31)[C@H](CO)N2C(=O)c1ccc(F)cc1 | 8
CCCC#Cc1ccc([C@@H]2[C@H]3CN(C(=O)NC4CCCC4)CCCCN3[C@H]2CO)cc1 | 6
COc1ccc(CN(C)C[C@H]2Oc3ccc(NS(=O)(=O)c4cn(C)cn4)cc3C(=O)N([C@@H](C)CO)C[C@H]2C)cc1 | -5
O=C(c1cccc(F)c1)N1CCCCN2[C@H](C1)[C@H](c1ccc(-c3ccccc3)cc1)[C@@H]2CO | -1
CCCNC(=O)[C@@H]1[C@@H](CO)[C@@H]2Cn3c(ccc(-c4cncnc4)c3=O)[C@@H]2N1C(=O)c1ccccc1F | 4
O=C(NC[C@H]1[C@H](c2ccccc2)[C@@H](CO)N1C(=O)Cc1cccnc1)C1CC1 | -7
C[C@@H](NC(=O)C[C@@H]1C[C@@H]2c3cc(NC(=O)CC4CC4)ccc3O[C@@H]2[C@@H](CO)O1)c1ccccc1 | -1
CN1CCN(C(=O)C[C@H]2CC[C@@H]3[C@H](COC[C@H](O)CN3Cc3ccc4c(c3)OCO4)O2)CC1 | -12
C[C@@H]1CN([C@H](C)CO)C(=O)c2cc(NC(=O)C3CCCCC3)ccc2O[C@@H]1CN(C)Cc1ccc(-c2ccccc2)cc1 | 6
O=C(NC[C@@H]1[C@H](c2ccccc2)[C@H](CO)N1C(=O)Cc1cccnc1)C1CC1 | -6
CO[C@@H]1CN(C)C(=O)c2cc(NC(=O)C3CC3)ccc2OC[C@H](C)N(CC2CC2)C[C@H]1C | -1
C[C@@H](O)C#Cc1ccc([C@@H]2[C@H](CO)N3CCCCN(C(=O)c4ccc(F)cc4)C[C@@H]23)cc1 | 4
CO[C@H]1CN(C)C(=O)c2ccc(NC(=O)C3CCC3)cc2OC[C@@H](C)N(Cc2ccncc2)C[C@H]1C | 11
O=C(c1ccccn1)N1C[C@@H]2[C@H](c3ccccc31)[C@@H](CO)N2C(=O)C1CCCC1 | -4

Quoted at random: three compounds from above, in no set order.
SMILES | UUG fidelity
C[C@@H]1CN([C@@H](C)CO)C(=O)c2cc(NC(=O)CCC(F)(F)F)ccc2O[C@H]1CN(C)C(=O)Nc1ccc(F)cc1 | 12
C[C@@H](NC(=O)C[C@@H]1C[C@@H]2c3cc(NC(=O)CC4CC4)ccc3O[C@@H]2[C@@H](CO)O1)c1ccccc1 | -1
C[C@@H](O)C#Cc1ccc([C@@H]2[C@H](CO)N3CCCCN(C(=O)c4ccc(F)cc4)C[C@@H]23)cc1 | 4

Rewritten as labelled records: part of the list above
smiles: CC(C)C#Cc1ccc([C@H]2[C@H](CO)N3CCCCN(C(=O)c4ccc(F)cc4)C[C@@H]23)cc1
  UUG fidelity: 25

smiles: OC[C@@H]1[C@H](c2ccc(Br)cc2)[C@H]2CN(Cc3cncnc3)CCCCN12
  UUG fidelity: -12

smiles: COc1ccc(CN(C)C[C@H]2OCc3cn(nn3)CCCC(=O)N([C@@H](C)CO)C[C@H]2C)cc1
  UUG fidelity: -8

smiles: C[C@@H]1CN([C@@H](C)CO)C(=O)Cc2cc(NC(=O)C3CC3)ccc2O[C@@H]1CN(C)C(=O)Nc1ccccc1
  UUG fidelity: 19

(cont.)
SMILES | UUG fidelity
CO[C@@H]1CN(C)C(=O)c2cc(NC(=O)C3CC3)ccc2OC[C@H](C)N(Cc2nccs2)C[C@@H]1C | -3
CC(C)NC(=O)N1CCCCN2[C@@H](CO)[C@@H](c3ccc(Br)cc3)[C@@H]2C1 | 19
CCCC(=O)Nc1ccc2c(c1)OC[C@@H](C)N(Cc1cccc(F)c1)C[C@H](C)[C@H](OC)CN(C)C2=O | 11
O=C(C1CC1)N1CC[C@@H]2[C@@H](CO)Nc3ccc(C#Cc4ccc(F)cc4)cc3[C@@H]21 | 1
CCS(=O)(=O)Nc1ccc2c(c1)C(=O)N(C)C[C@@H](OC)[C@H](C)CN(CC1CCCCC1)[C@@H](C)CO2 | 8
CO[C@H]1CN(C)C(=O)c2ccc(NS(=O)(=O)c3ccccc3)cc2OC[C@@H](C)N(Cc2ccccn2)C[C@H]1C | 11
O=C(C[C@@H]1CC[C@@H]2[C@H](COC[C@@H](O)CN2S(=O)(=O)c2cccc(F)c2)O1)NCCCN1CCOCC1 | -16
COCC(=O)Nc1ccc2c(c1)C(=O)N(C)C[C@@H](OC)[C@H](C)CN(Cc1ccccc1OC)[C@@H](C)CO2 | -2
CCCC(=O)Nc1ccc2c(c1)C(=O)N(C)C[C@@H](OC)[C@H](C)CN(S(=O)(=O)c1cn(C)cn1)[C@H](C)CO2 | -24
COCCNC(=O)C[C@H]1CC[C@H]2[C@@H](COc3ccc(NC(=O)c4ccno4)cc3C(=O)N2C)O1 | -11
O=C(c1cnccn1)N1C[C@H]2[C@@H](c3ccccc31)[C@H](CO)N2C(=O)CC1CC1 | 20
